KCNQ2 block: KCNQ2 channel blockers in CHO-K1 cells – cell-based, FluxOR thallium flux, B-score, primary screen (AID 2156). O88943. 20 min; active compounds read low; only compounds with negative scores are shown here; some inactives read as strong as hits. B-score at 10 µM. 310,000 tested, 1.1% active;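 active = fluorescence ratio B-score at most minus 3 library SDs, with starting brightness B-score within 2 library SDs, cut at about -5.5 in these data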
Target sequence (O88943 whole entry, looked up): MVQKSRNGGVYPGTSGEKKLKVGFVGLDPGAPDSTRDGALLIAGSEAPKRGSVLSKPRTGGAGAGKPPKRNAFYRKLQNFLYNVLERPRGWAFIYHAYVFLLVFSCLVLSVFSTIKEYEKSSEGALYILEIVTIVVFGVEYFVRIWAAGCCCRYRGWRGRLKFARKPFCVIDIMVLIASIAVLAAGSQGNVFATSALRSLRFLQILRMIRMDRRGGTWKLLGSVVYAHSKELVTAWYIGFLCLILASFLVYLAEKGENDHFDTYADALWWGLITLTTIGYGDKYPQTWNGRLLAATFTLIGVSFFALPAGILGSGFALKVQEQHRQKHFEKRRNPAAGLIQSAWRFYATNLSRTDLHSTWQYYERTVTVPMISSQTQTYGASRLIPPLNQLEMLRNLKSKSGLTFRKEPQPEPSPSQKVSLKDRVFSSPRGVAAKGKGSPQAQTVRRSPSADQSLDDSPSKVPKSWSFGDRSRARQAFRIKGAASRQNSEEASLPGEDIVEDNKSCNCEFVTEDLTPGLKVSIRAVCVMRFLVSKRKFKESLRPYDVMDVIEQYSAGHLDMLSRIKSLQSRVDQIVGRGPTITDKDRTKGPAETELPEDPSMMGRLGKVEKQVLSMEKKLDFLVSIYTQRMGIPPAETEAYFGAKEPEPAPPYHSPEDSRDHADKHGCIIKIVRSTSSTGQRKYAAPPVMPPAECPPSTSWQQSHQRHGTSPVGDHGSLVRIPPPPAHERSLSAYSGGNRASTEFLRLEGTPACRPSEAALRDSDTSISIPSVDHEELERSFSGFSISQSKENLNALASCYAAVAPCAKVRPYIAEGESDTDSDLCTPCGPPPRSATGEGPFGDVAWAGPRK
KCNQ2 block baseline: recorded beside KCNQ2 block, whose call it bears; B-score; measured here: initial fluorescence intensity artifact check;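 brightness before thallium and not channel activity; 0 = typical well and far values either way flag optical interference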
Numbers without * were called inactive; i = inactive.

SMILES | KCNQ2 block | KCNQ2 block baseline
CC1CCN(C(=O)CSc2nnc3ccc(-c4cccnc4)nn23)CC1 | i | 0.51
Cc1nn(CC(=O)N2CCN(C34CC5CC(CC(C5)C3)C4)CC2)c(C)c1[N+](=O)[O-] | i | -0.04
Cc1nnc(NC(=O)C2CCCC2)s1 | i | 0.11
CCN1C(=O)/C(=C2/SC(C)=C(C)N2CC)SC1=S | i | -2.04
O=C(CCNC(=O)c1ccccc1Cl)Nc1ccc(S(=O)(=O)Nc2ncccn2)cc1 | i | 0.43
Cc1ccc(S(=O)(=O)N(CC(=O)NCc2ccco2)Cc2ccccc2F)cc1 | i | 0.64
COc1ccc(N(C(=O)c2snc(C(N)=O)c2N)C(C(=O)NC2CCCC2)c2ccc(C)o2)c(OC)c1 (stereo not given) | i | -0.98
NS(=O)(=O)c1ccc(CCNC(=O)NC2(C(F)(F)F)Oc3ccccc3O2)cc1 | i | 0.07
Cc1ccc(CN2CCNC(=O)C2CC(=O)NC2CCCCCC2)cc1 (stereo not given) | i | -1.69
S=C(Nc1ccccc1Oc1ccccc1)Nc1cccc(Cl)c1Cl | i | 0.63
Cc1nc(C(=O)O)nn1-c1cc(Cl)ccc1Cl | i | -0.06
O=C(CSc1cccc2cccnc12)Nc1ccc(S(=O)(=O)N2CCOCC2)cc1 | i | 1.72
O=C(COC(=O)C1CCCN1C(=O)c1cccs1)c1ccccc1 (stereo not given) | i | -0.68
CSc1ccccc1NC(=O)CN1c2ccccc2CC1C (stereo not given) | i | -0.01
CCc1nnc(NC(=O)CSc2nnc(-c3c[nH]c4ccccc34)n2CC)s1 | i | 1.04
CCOC(=O)C1=C(C)NC(C)=C(C(=O)OCC)C1c1ccc(O)cc1 | i | -0.18
COc1ccc(-c2cc3ccccc3s2)cc1[C@H]1[C@H]2C=CC[C@@H](C)[C@@H]2C(=O)N1Cc1ccccc1 | i | 3.01
C/C(=N\NC(=O)CSc1nc(C)cc(C)n1)c1ccc2c(c1)OCCO2 | i | -1.38
CN(Cc1ccccc1)C(=O)C1CCCN(Cc2cccc(Cl)c2)C1 (stereo not given) | i | -0.73
COc1ccccc1C(=O)N1CCN=C1c1ccccc1 | i | 1.07
COc1ccc(/C=N/Nc2c(Cl)cc(Cl)cc2Cl)cc1CN1CCOCC1 | i | 1.77
COc1cc(C(=O)N2CCN(Cc3ccc4c(c3)OCO4)CC2)cc(OC)c1OC | i | 1.52
CC(CC(=O)O)CC(=O)Nc1cc([N+](=O)[O-])ccc1O (stereo not given) | i | -0.23
Cc1ccc2nc(C3CCN(CC(=O)Nc4ccc5c(c4)OCCO5)CC3)[nH]c2c1 | i | -0.57
Cc1c(N2CCCC2)cc2c(c1NC(=O)c1ccccc1Cl)C(C)(C)CC2(C)C | i | -1.75
COCC(C)n1c(SCc2cc(C(=O)OC)c(C)o2)nc2ccccc2c1=O (stereo not given) | i | 0.8
COC(=O)c1ccc(CSc2nnc(-c3ccncc3)o2)o1 | i | -0.4
CCN1CCN(C(=O)CN2C(=O)COc3ccc(S(=O)(=O)N4CCOCC4)cc32)CC1 | i | 0.09
COc1ccc(-c2csc3ncnc(Oc4cccc5ccc(C)nc45)c23)cc1 | i | -0.13
COc1cccc(NC(=O)Cn2c(=O)n(-c3cc(OC)c(OC)c(OC)c3)c(=O)c3ccccc32)c1 | i | 0.54
CNc1nc2c3ccccc3n(C(C)=O)c2s1 | i | -1.07
Cc1cc2nnc(SCC(=O)NCc3cccs3)n2c2ccccc12 | i | -0.27
Cc1ccccc1-c1nc(CS(=O)(=O)CC(=O)NCCCN2CC(C)CC(C)C2)c(C)o1 (stereo not given) | i | 0.02
N#C/C(=N\Nc1ccc(Cl)cc1)C(=N)N1CCCCC1 | i | -0.48
O=C(O)c1ccc2c(c1)CC(c1ccccc1)OC2=O (stereo not given) | i | 0.05
COc1ccc(NC(=O)CCCn2c(=S)[nH]c3ccccc3c2=O)cc1 | i | 1.66
COc1ccc(NC(=O)CSc2n[nH]c(CNc3cccc(C)c3)n2)cc1 | i | 0.46
CCCn1c(SCC(=O)Nc2ccccc2CC)nnc1C(C)C | i | 1.32
CCCCCCn1nc(C(=O)Nc2nc3c(s2)CCCC3)c2ccccc2c1=O | i | -0.55
CCN1CCN(c2c(/C=C3\SC(=S)N(Cc4ccco4)C3=O)c(C)c(C#N)c(=O)n2C)CC1 | -7.74* | 2.72*
CCCCSc1nnc([C@H](CC(C)C)NC(=O)OC(C)(C)C)o1 | i | -1.39
C#CCSc1nc2sc3c(c2c(=O)n1C)CCC3 | i | 0.09
CC(C)Sc1oc(-c2ccco2)nc1S(=O)(=O)c1ccc(F)cc1 | i | 0.54
CCC(Sc1ncccc1C(=O)O)C(=O)N1CCOCC1 (stereo not given) | i | 0.01
COc1cc(/C=C/C(=O)OCC(=O)Nc2ccc(C)c(S(=O)(=O)N3CCCCC3)c2)ccc1O | i | 0.07
O=c1cc(N2CCCCC2)c(-c2ccccc2)nn1Cc1cccc(F)c1 | i | 0.12
COc1ccc2[nH]c(O)c(N=O)c2c1 | i | 1.06
NC(=O)c1ccc(-c2ccccc2F)cc1 | i | -1.04
COc1ccccc1Nc1cc(N2CCOCC2)c2nonc2c1[N+](=O)[O-] | i | -2.06
CCCOc1ccc(C(=O)NNC(=S)NC(=O)CC)cc1 | i | 0.08
Cc1coc(C)c1C(=O)Nc1ccc2ccccc2c1 | i | 0.19
COc1ccc(OCC(=O)OC(C)CN2CCCCC2)cc1 (stereo not given) | i | 0.12
O=C1CN(C(=O)CN2C(=O)NC3(CCCCC3)C2=O)c2ccccc2N1 | i | 0.56
O=C(Nc1nc2ccccc2[nH]1)c1ccccc1OC(F)F | i | -0.19
CCn1c(CC(=O)Nc2ccc(C)c(Cl)c2)nnc1SCCOc1ccc(OC)cc1 | i | -0.64
O=C(COC(=O)C1CCC(N2C(=O)C3C4CCC(C4)C3C2=O)CC1)c1ccc(F)cc1 (stereo not given) | i | -0.59
COC(=O)c1ccc(NC(=O)Cc2ccc(F)cc2)cc1 | i | -2.25
CC(NCCOCCOc1ccccc1)c1ccccc1 (stereo not given) | i | 0.61
NC(=O)COC(=O)CC(NC(N)=O)c1ccc(Cl)cc1 (stereo not given) | i | -0.36
O=C(Oc1ccc(Cl)cc1)c1ccc(COC(=O)c2cnccn2)cc1 | i | -0.03

A different layout for some results above.
The line under a structure holds: KCNQ2 block, KCNQ2 block baseline
Cc1coc(C)c1C(=O)Nc1ccc2ccccc2c1
 : i, 0.19
COc1ccc(OCC(=O)OC(C)CN2CCCCC2)cc1 (stereo not given)
 : i, 0.12
O=C1CN(C(=O)CN2C(=O)NC3(CCCCC3)C2=O)c2ccccc2N1
 : i, 0.56
O=C(Nc1nc2ccccc2[nH]1)c1ccccc1OC(F)F
 : i, -0.19
CCn1c(CC(=O)Nc2ccc(C)c(Cl)c2)nnc1SCCOc1ccc(OC)cc1
 : i, -0.64

Remaining list, next part.
SMILES | KCNQ2 block | KCNQ2 block baseline
Nc1c(C(=O)Nc2ccccc2)sc2nc(-c3cccnc3)ccc12 | i | -2.32
Cc1cccc2cc(C#N)c(NCCNC(=O)COc3ccccc3)nc12 | i | 0.04
CCOC(=O)c1ccc(Oc2coc3cc(O)ccc3c2=O)cc1 | i | 0.52
O=C(CSc1nnc(-c2ccco2)o1)N1CCN(c2ccccc2)CC1 | i | -1.22
COc1ccccc1NC(=O)COC(=O)[C@@H]1CCCN1C(=O)c1cccs1 | i | 2.25
CC1CN(C(=O)C(c2ccccc2)c2ccccc2)CC(C)O1 (stereo not given) | i | -0.32
Cc1nc2sc(-c3ccccc3)cc2c(=O)n1/N=C/N(C)C | i | 0.35
Cc1ccnc(NC(c2ccccn2)c2c(C)[nH]c3ccccc23)c1 (stereo not given) | i | -0.29
COc1ccc(-c2nc(CN3CCCCC3c3cccnc3)c(C)o2)c(F)c1 (stereo not given) | i | 2.01
CCOC(=O)C1=C(C)N=C2SC=C(C)N2C1c1ccc(OC)cc1 (stereo not given) | i | 0.29
COc1cccc(OC)c1C(=O)N1CCN=C1SCc1cccnc1 | i | 0.84
Fc1ccc(/C=N/Nc2ncnc3nc[nH]c23)cc1F | i | -0.06
Cc1onc(-c2ccccc2)c1C(=O)N1CCN(c2ccc([N+](=O)[O-])cc2)CC1 | i | -0.49
N#CCCN1CCN(S(=O)(=O)c2ccc(S(=O)(=O)NC3CC3)cc2)CC1 | i | 0.84
O=[N+]([O-])c1cccc(-c2csc(N/N=C/c3cccc(O)c3)n2)c1 | i | 0.78

In a second layout: results already given.
Results follow in this order: KCNQ2 block, KCNQ2 block baseline
Cc1nc2sc(-c3ccccc3)cc2c(=O)n1/N=C/N(C)C
 : i, 0.35
Cc1ccnc(NC(c2ccccn2)c2c(C)[nH]c3ccccc23)c1 (stereo not given)
 : i, -0.29
COc1ccc(-c2nc(CN3CCCCC3c3cccnc3)c(C)o2)c(F)c1 (stereo not given)
 : i, 2.01
CCOC(=O)C1=C(C)N=C2SC=C(C)N2C1c1ccc(OC)cc1 (stereo not given)
 : i, 0.29

(more compounds)
SMILES | KCNQ2 block | KCNQ2 block baseline
O=C(c1cc([N+](=O)[O-])cc([N+](=O)[O-])c1)N1CCN(Cc2ccc3c(c2)OCO3)CC1 | i | 1.66
COc1cc2c(cc1NC(=O)COC(=O)[C@@H](NS(=O)(=O)c1ccccc1)C(C)C)oc1ccccc12 | i | 0.25
CC1(C)CC(=O)C(C2C3=C(CC(C)(C)CC3=O)OC3=C2C(=O)CC(C)(C)C3)=C(O)C1 | i | 1.73
COc1ccc(C2=NOC(Cn3nc(C(=O)NCc4ccc(C)cc4)cc3-c3ccccc3)C2)cc1 (stereo not given) | i | -1.15
CC1CCN(C(=O)Cn2cc(SCC(=O)NCC3CCCO3)c3ccccc32)CC1 (stereo not given) | i | -0.34
CCOC(=O)CN(C)Cc1cn(C)nc1-c1ccc(Oc2ccccc2)cc1 | i | 0.56
O=c1[nH]c(-c2ccccc2)nc2sc(-c3ccccc3)cc12 | i | 1.39
CN(Cc1ccccc1)c1nc(-c2cccc([N+](=O)[O-])c2)nc2ccccc12 | i | 0.11
CSc1ncccc1C(=O)NC1CCCCCC1 | i | -1.17
CCOC(=O)c1c(C)c(C(=O)N2CCc3ccccc3C2)c(C)n1CC | i | -0.79
N#CCCN1CCN(Cc2cc(-c3ccccc3)ccc2O)CC1 | i | -0.12
O=C(NCc1ccc(F)cc1)C(c1ccccc1)N(C(=O)c1csnn1)c1ccccc1 (stereo not given) | i | -0.97
COc1ccc(CC(=O)Nc2ccc3c(c2)OCO3)cc1S(=O)(=O)N1CCOCC1 | i | -0.71
O=C(N/N=C/c1cc(Br)c(Br)s1)c1ccncc1 | i | -0.03
C/C(=N\Nc1ccc(F)cc1F)c1ccccc1O | i | 3.02
Cc1ccccc1OCC(=O)O/N=C(\N)Cc1cccs1 | i | -0.08
CC(C)(C)OC(=O)NC(CCCCNC=O)C(=O)O (stereo not given) | -6.64* | -0.07*
CC1CC(C)CN(c2oc(-c3ccccc3Cl)nc2C#N)C1 (stereo not given) | i | -0.62
N#Cc1cc(C(=O)c2cc(Cl)ccc2O)cn(-c2ccccc2)c1=O | i | -0.71
O=[N+]([O-])c1ccccc1/C=N/N1CCN(c2ccncc2S(=O)(=O)N2CCCCC2)CC1 | i | 0.07
CCOC(=O)c1c(NC(=O)C2COc3ccccc3O2)sc(C)c1C (stereo not given) | i | -0.87
CC(=O)NS(=O)(=O)c1ccc(NC(=O)c2cc(-c3ccc(C)c(C)c3)nc3ccccc23)cc1 | i | 0.45
CCOC(=O)C1C(=O)C=C(c2cccs2)CC1c1ccccc1C (stereo not given) | i | -0.85
O=C(NNC(=O)c1ccccc1O)c1ccc(NS(=O)(=O)c2ccc(F)c(F)c2)cc1 | i | -2.13
CCOC(=O)C1CCCN(c2c(NCCc3cccc(C)c3)c(=O)c2=O)C1 (stereo not given) | i | 0.04
Cc1ccccc1-c1ccnc2[nH]n(-c3ccccc3)c(=O)c12 | i | -0.77
COC(=O)CCC(=O)N1CCCC(C(=O)c2cc(F)ccc2F)C1 (stereo not given) | i | -0.02
CC(=O)c1ccc(OCc2ccc(C(=O)c3ccccc3)cc2)cc1 | i | 2.23
CCOC(=O)C1CCCN(Cc2c(F)cccc2Cl)C1 (stereo not given) | i | -3
CCOC(=O)C(CC)n1nc(C)n2c(cc3sccc32)c1=O (stereo not given) | i | -0.47
COc1ccc(-c2ccc(=O)n(Cc3ccc([N+](=O)[O-])cc3)n2)cc1 | i | -0.83
CCOc1ccccc1N(CC(=O)N/N=C/c1cc(Br)ccc1OC)S(C)(=O)=O | i | -0.22
COC(=O)c1ccc2c(=O)n(CCN3CCOCC3)c(SCC(=O)Nc3ccccc3Cl)nc2c1 | -6.21* | 0.01*
COc1ccc(-n2c(CN3CCC(C)CC3)nc3ccc([N+](=O)[O-])cc3c2=O)c(OC)c1 | i | 0.95
CCOC(=O)C(NCCCO)c1ccccc1 (stereo not given) | i | 1.94
Cc1ccc(S(=O)(=O)NCCC(=O)N2CCCCCCC2)cc1 | i | -0.58
COc1cccc(CN(Cc2ccco2)C(c2ccc(F)cc2)c2nnnn2C(C)(C)C)c1 (stereo not given) | -6.06* | -0.28*
CC(C)CCN(C(=S)Nc1cccc(F)c1)C(C)c1cccs1 (stereo not given) | i | 0.96
CN(C)S(=O)(=O)N1CCN(CC(=O)Nc2ccc(F)cc2)CC1 | i | 0.51
Cc1ccc(-c2nnc(-c3ccccc3)c(N3CCOCC3)n2)cc1 | i | 0.26

Screening results from PubChem BioAssay.

These rows are one share of the data. The share of hits here may be higher or lower than overall.
